Screening results from PubChem BioAssay.
SARS PLP yeast: blocks SARS-CoV papain-like protease in a yeast assay | S. cerevisiae expressing SARS-CoV PLpro, growth rescue; control for the full effect not named in the record | Potency, µM (series often up to 32.9 µM), inactives show at the top dose activity, positive = growth rescue | 330,000 compounds, 0.19% hits | AID 485353; note: 0% is about no effect; nearly all actives have a fitted effect of over 55% in size; growth read by luminescence after 48 h
LASV entry inh: Lassa virus entry inhibition | Lassa virus pseudotype entry inhibition, cell reporter; control for the full effect not named in the record | Potency, µM (top dose mostly 37.9 µM), for inactives: at the top dose activity change, negative = inhibition, most hits filed as inhibitors | 300,000 compounds, 1.2% hits; active means well fitted inhibition curve with a large enough effect; inconclusive means small, poorly fitted or top-dose-only effect, or effect the other way; inactive means flat fitted curve, though single readings scatter; tested in HEK293 cells; note: % is set by controls: 0 for no effect and ±100 for the full control effect; nearly all actives have a fitted effect of over 50% in size; luciferase read-out
StopGo reporter: lowers the luciferase signal of an FMDV 2A StopGo reporter. AID 1159524. 410,000 compounds, 1.2% hits. Potency, µM (titrated, usually from 57.9 µM), inactives show at the top dose signal change, negative = less light. human cells with a luciferase reporter of 2A StopGo recoding; control for the full effect not named in the record; active = well fitted falling curve with a large enough effect; inconclusive = small, poorly fitted or top-dose-only effect; inactive = no such curve, though single readings can be large or run the other way; tested in HEK293T cells; note: % is set by controls: 0 for no effect and ±100 for the full control effect; nearly all actives have a fitted effect of over 45% in size; luciferase light after 4 h
RE007 growth inh: less growth of the S. pombe RE007 Vpr strain; S. pombe RE007 Vpr strain, BacTiter-Glo ATP luminescence, 24 h; control for the full effect not named in the record; Potency, µM (top dose mostly 92.2 µM), for the others: at the highest dose activity change, negative = less growth; 360,000 compounds, 0.21% hits; active = well fitted falling curve with a large enough effect; inconclusive = small, poorly fitted or top-dose-only effect; inactive = no such curve, though single readings can be large or run the other way;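 note: % is set by controls: 0 for no effect and ±100 for the full control effect; nearly all actives have a fitted effect of over 50% in size; the assay follows cell death caused by Vpr and the record does not say whether a fall means rescue or toxicity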
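Fission yeast strain RE007, carrying one chromosomally integrated HIV-1 vpr copy, was seeded at OD 0.01 in PMG+AL medium with 23 nL pinned compound. After 24 h at 30 °C and 99% humidity, viability was read by BacTiter-Glo luminescence.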
Cruzain inh Det: cruzain (T. cruzi) inhibition with detergent; purified cruzain, Z-FR-AMC fluorescence, 0.01% Triton; Potency, µM, without a hit: max response, negative = inhibition, hits mostly inhibitors; 200,000 compounds, 0.43% hits; active = well fitted curve in the direction sought with a large enough effect; inconclusive = small, poorly fitted or top-dose-only effect, or another doubt; inactive = no such curve, though single readings can be large; an effect the other way counts as inactive or inconclusive;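 note: plate controls were neutral wells for no effect and buffer without enzyme for full effect; nearly all actives have a fitted effect of over 40% in size; top concentration of the series not given in the record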
Target sequence (P25779 123-467 limits assumed): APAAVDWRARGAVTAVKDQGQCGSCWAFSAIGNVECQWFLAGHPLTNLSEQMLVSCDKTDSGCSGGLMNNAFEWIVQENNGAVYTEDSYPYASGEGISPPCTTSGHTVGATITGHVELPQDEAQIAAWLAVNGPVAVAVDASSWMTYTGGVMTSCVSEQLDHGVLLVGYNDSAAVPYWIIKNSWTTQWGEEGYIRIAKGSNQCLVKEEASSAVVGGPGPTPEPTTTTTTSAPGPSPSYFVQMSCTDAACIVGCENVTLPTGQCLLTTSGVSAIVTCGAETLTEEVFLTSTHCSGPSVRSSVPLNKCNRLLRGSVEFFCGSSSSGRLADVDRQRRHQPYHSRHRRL
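15 min RT preincubation of 1.5 nM cruzain with compound, then 2 uM Z-FR-AMC added; kinetic AMC fluorescence, 60 s delta. Triton X-100 0.01%, pH 5.5.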
Marburg entry inh: blocks Marburg virus binding to or entry into cells. Marburg virus pseudotyped entry inhibition, cell reporter; control for the full effect not named in the record; about a third of the inactives were read at about 46 µM. Potency, µM (titrated, usually from 37.8 µM), for inactives: top-dose activity change, negative = inhibition, actives largely listed as inhibitors. 300,000 compounds, 1.8% hits. AID 540276; active = well fitted inhibition curve with a large enough effect; inconclusive = small, poorly fitted or top-dose-only effect, or effect the other way; inactive = flat fitted curve, though single readings scatter; tested in HEK293 cells; about a fifth of its hits are not listed in these tables; note: % is set by controls: 0 for no effect and ±100 for the full control effect; luciferase read-out
Cruzain noTriton: blocks cruzain activity in detergent-free assay. purified cruzain, Z-FR-AMC fluorescence, no detergent. P25779. Potency, µM, inactives show max response, negative = inhibition, most hits filed as inhibitors. 200,000 compounds, 2.3% hits. AID 1476; active = well fitted curve in the direction sought with a large enough effect; inconclusive = small, poorly fitted or top-dose-only effect, or another doubt; inactive = no such curve, though single readings can be large; an effect the other way counts as inactive or inconclusive;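 note: plate controls were enzyme without inhibitor for no effect and buffer without enzyme for full effect; nearly all actives have a fitted effect of over 40% in size; top concentration of the series not given in the record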
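Detergent-free condition (0.00005% Triton X-100) in acetate buffer pH 5.5 with DTT. 1.5 nM enzyme and compound were pre-mixed 15 min, then 2 uM Z-FR-AMC substrate added; reaction progress from fluorescence change between first and third reads (60 s).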
NS1 inh: blocks influenza NS1 protein function. S. cerevisiae slowed by influenza A NS1, growth recovery by OD600. Potency, µM (top dose mostly 46.1 µM), without a hit: at the highest dose activity, positive = more growth. 270,000 compounds, 0.4% hits. AID 2326; note: actives are rising curves; nearly all actives have a fitted effect of over 50% in size
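In this qHTS, NS1 from influenza A is expressed in budding yeast, where it slows growth. Cells are switched from glucose to 2% galactose medium (pH 6.0, -URA), treated with compound, and growth recovery is read at OD600.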
Active calls of the source: *; ? = inconclusive; / = no result given; & = joins results of further samples; [ ] = remark or other dose. Unless noted, calls come from the whole dose curve; as a rule, active means well fitted rising curve with a large enough effect; inconclusive means small, poorly fitted or top-dose-only effect; inactive means no such curve, though single readings can be large or run the other way. Potency is the fitted concentration of half-maximal effect. Not a hit list. Share with any hit: about 4.7%.

SMILES | SARS PLP yeast | LASV entry inh | StopGo reporter | RE007 growth inh | Cruzain inh Det | Marburg entry inh | Cruzain noTriton | NS1 inh
CCOC(=O)C(=CNNc1c(C)csc1C(=O)OC)C(=O)OCC | 0% | / | -27% | 12% | / | / | / | 0%
O=C1CCc2cc(S(=O)(=O)NC(Cc3ccccc3)C(=O)NC3CCCCC3)ccc2N1 (stereo unspecified) | 9% | / | / | / | 2.2% | / | 0% | -27%
COc1ccc(C(=O)NCC(=O)NCC(=O)OCC(=O)C(C)(C)C)cc1 | 2% | 1% | -19% | / | -3.3% | 8% | -15% | -10%
CCC(C(=O)Nc1cc(OC)cc(OC)c1)n1nc(-c2ccc(C)c(C)c2)ccc1=O (stereo unspecified) | / | -17%[46.1 µM] | -21% | / | -9.2% | ? | ? | /
CSc1nc2cc3c(cc2n1C(=O)c1ccc(C)cc1)OCCO3 | -11% | 6% | 59%[activator] | -3% | -3.6% | 8% | 26% | -4%
CCOC(=O)c1nnn(CC(=O)N2N=C(c3cccc4ccccc34)CC2c2ccccc2)c1C(=O)OCC (stereo unspecified) | 5% | ? | 0% | -1% | -30% | ? | ? | 8%
CCOC(=O)c1sc(CS(=O)(=O)c2ccc(Cl)cc2)nc1C | 0% | -17% | -19% | -8% | / | -9%[46.1 µM] | / | -3%
CCN1CCN(Cc2nc3cc(NC(=O)c4cc(OC)c(OC)c(OC)c4)ccc3n2CC)CC1 | / | 0%[46.1 µM] | 3% | / | -2.2% | ? | -12% | /
Cc1cc2nc(-c3ccccc3O)[nH]c2cc1C | / | -18%[46.1 µM] | 5% | -15% | / | ? | / | /
CN(C(=O)CSc1nc2ccc(NC(=O)c3ccco3)cc2s1)c1ccccc1 | / | -33%[46.1 µM] | ? | / | -8.4% | ? | 3% | /
CC(C)=CC1C(C(=O)NCCc2ccccc2)C1(C)C (stereo unspecified) | / | 9% | -3% | 3% | / | 15% | / | /
COc1ccccc1CNC(=O)C(NS(=O)(=O)c1ccc2c(c1)oc(=O)n2C)C(C)C (stereo unspecified) | 9% | / | -21% | 0% | 4.3% | / | 3% | 2%
CCCCCCCC1=CC2=C(Cl)C(=O)C(C)(OC(C)=O)C(=O)C2=CO1 (stereo unspecified) | / | ? | / | / | 1.1% | 5%&5%[14.2 µM] | -4% | /
C=CCNC(=S)NCC=C | 1% | / | -23% | 9% | / | / | / | -71%
Cc1nc(-c2nc(C(=O)NNS(C)(=O)=O)cs2)cs1 | 1% | -1% | -11% | 17% | / | 8% | / | 3%
CCOC(=O)c1c(C)n(C)c2cc(-c3ccc(C)cc3)c(O)cc12 | 2% | 4%[46.1 µM] | -5% | -6% | 3.0% | -10%[46.1 µM] | ? | 8%
CCOc1ccc(NC(=O)CS(=O)CC(=O)Nc2cccnc2)cc1 (stereo unspecified) | 0% | 13%[46.1 µM] | -7% | -14% | / | -2%[46.1 µM] | / | 3%
CCCS(=O)(=O)N1CCC(C(=O)NCCCN2CCCC2=O)CC1 | -10% | 15% | 12% | -10% | -2.8% | 9% | 3% | 5%
CC(C)CC1COC(=O)N1 (stereo unspecified) | 2% | / | -8% | 9% | / | / | / | -12%
O=[N+]([O-])c1ccc2ccn(C3OCC(O)C(O)C3O)c2c1 (stereo unspecified) | 1% | / | -2% | 2% | / | 9%[46.1 µM] | / | 6%
CC(C)(C)NC(=O)NC(=O)COC(=O)c1cccc(OC(F)F)c1 | -3% | ? | -16% | 11% | / | 28%[46.1 µM] | / | 21%
COC(=O)C1=C(C)NC(=S)NC1c1ccc(N(CCCl)CCCl)cc1Cl (stereo unspecified) | / | ? | ? | 0% | / | ? | / | /
COC(=O)C1=C(C)N(c2ccc(OC)cc2)C(=O)/C1=C\c1cccs1 | -9% | -4% | 0% | 5% | -6.5% | ? | 27% | 0%
Cc1cc(C)c(S(=O)(=O)Cc2ccccc2)c(OC(C)C)n1 | -3% | / | -2% | -8% | / | / | / | -6%
Cc1ccc(NC(=O)c2cccc(S(=O)(=O)N3CCN(c4ccccc4)CC3)c2)nc1 | -2% | -1% | -25% | -5% | / | ? | / | /

Whole records as entered above. Order of screens: SARS PLP yeast	LASV entry inh	StopGo reporter	RE007 growth inh	Cruzain inh Det	Marburg entry inh	Cruzain noTriton	NS1 inh
Cc1cc(C)c(S(=O)(=O)Cc2ccccc2)c(OC(C)C)n1 is listed as -3%	/	-2%	-8%	/	/	/	-6%
CC(C)(C)NC(=O)NC(=O)COC(=O)c1cccc(OC(F)F)c1 is listed as -3%	?	-16%	11%	/	28%[46.1 µM]	/	21%
CN(C(=O)CSc1nc2ccc(NC(=O)c3ccco3)cc2s1)c1ccccc1 is listed as /	-33%[46.1 µM]	?	/	-8.4%	?	3%	/

(listing goes on)
SMILES | SARS PLP yeast | LASV entry inh | StopGo reporter | RE007 growth inh | Cruzain inh Det | Marburg entry inh | Cruzain noTriton | NS1 inh
CCN(CC)C(=O)Cn1c(=O)n(CCCCCC(=O)NCc2ccccc2Cl)c(=O)c2sccc21 | / | -22%[46.1 µM] | -10% | / | -1.3% | ? | 3% | /
O=C(CCN1CCCCC1)c1cccc(Cl)c1 | / | 7% | 9% | -13% | / | 11% | / | /
CCc1ccc(NC(=O)c2cc(S(=O)(=O)N3CCCC3)c[nH]2)cc1 | -2% | / | 3% | 3% | / | / | / | 3%
CCC1C2Cn3c(nc4ccccc43)C1N(C)O2 (stereo unspecified) | -2% | / | -13% | 3% | / | / | / | 8%
CC(=O)CSc1ncnc2sc3c(c12)CCC3 | -2% | 1% | -13% | 10% | / | 1% | / | /
Cc1ccc(S(=O)(=O)N(C)C)cc1NC(=O)CSc1ncc(C(F)(F)F)cc1Cl | 7% | -18% | ? | -2% | -6.0% | 2% | ? | 1%
Cc1cccc(/C=N/NC(=O)c2ccncc2)n1 | 15% | / | 2% | -16% | / | / | / | -1%
Cc1nnc(SCCn2c(N3CCCCC3)nc3c2c(=O)n(C)c(=O)n3C)s1 | / | 24% | 0% | 2% | / | 6% | / | 1%
CCOc1ccccc1CNC(=O)CCn1ccc2cc(S(=O)(=O)N3CCC(C)CC3)ccc21 | / | 0%[46.1 µM] | -2% | / | -7.2% | / | 11% | /
Cc1ccc(S(=O)(=O)CCC(=O)Nc2cc(Cl)ccc2-n2cncn2)cc1 | 3% | 11% | -21% | 6% | / | -7%[46.1 µM] | / | /
Cc1sc2c(c1C)c(=O)n(CCc1ccccc1)c(=O)n2Cc1ccc(C(C)(C)C)cc1 | / | 12%[46.1 µM] | -18% | / | -0.9% | -2%[46.1 µM] | -4% | /
CC1(C)CC(=O)C2=C(C1)OC(N)=C(C#N)[C@@]21C(=O)N(CC(N)=O)c2ccccc21 | 5% | -1% | 23% | 8% | -6.4% | 6% | -2% | -1%
O=C(CN1CCN(S(=O)(=O)c2ccc(F)cc2)CC1)Nc1ccccc1F | -1% | 0% | -9% | 5% | -4.4% | -1%[46.1 µM] | -1% | -9%
CCN(C(=O)C(Cc1ccccc1)NS(=O)(=O)c1cccc2nsnc12)c1ccccc1 (stereo unspecified) | / | -1%[46.1 µM] | 45%[activator] | / | -6.1% | 4%[46.1 µM] | -8% | /
COc1ccccc1Sc1ccccc1/C=N/NC(N)=O | 0% | -27%[46.1 µM] | -24% | 8% | / | 0%[46.1 µM] | / | /
Cc1ccc(C)c(CNC(=O)c2sc3ncnc(N(C)C4CCCCC4)c3c2C)c1 | / | ? | -23% | / | 0.7% | / | -2% | /
C/C(=N\NC(=O)Cn1ccc(C(F)(F)F)n1)c1ccc(N2CCOCC2)cc1 | 1% | 1% | -7% | -12% | / | -4%[46.1 µM] | / | 0%
COc1ccc([N+](=O)[O-])cc1NC(=O)CSc1ncccn1 | 0% | -12% | -2% | -6% | / | 1%[46.1 µM] | / | -2%
OCc1cn(-c2ccccc2)nc1-c1ccco1 | -6% | 1% | / | -16% | 2.8% | 6% | 2% | -9%
Cc1ccc(-n2c(=O)[nH]cc(C(=O)Nc3ccc4c(c3)OCCO4)c2=O)cc1 | -3% | ? | -11% | -5% | 2.8% | 3% | 4% | -10%
COc1ccc(CN2CCC(n3nccc3NC(=O)c3ccc4c(c3)OCO4)CC2)cc1C | 0% | / | -7% | 3% | / | / | / | 6%
COc1cccc(CC2(CO)CCCN(C(=O)c3cc[n+]([O-])cc3)C2)c1 (stereo unspecified) | 0% | 7% | 4% | 2% | / | 4%[46.1 µM] | / | -3%
O=S(=O)(c1ccccc1)c1nnn2c1nc(N1CCN(c3ccccc3)CC1)c1cc(Cl)ccc12 | / | / | 0% | / | 0.5% | 11%[46.1 µM] | -1% | /
O=C(NCC1CCC(C(=O)O)CC1)OCc1ccccc1 (stereo unspecified) | 0% | 14% | 5% | -17% | -8.1% | ? | 24% | 13%
Cc1ccc2cc(CCNC(=O)c3cccc([N+](=O)[O-])c3)c(=O)[nH]c2c1C | 1% | 1% | 22µM* | 6% | -2.2% | 3% | 0% | 2%
Other entries
SMILES | SARS PLP yeast | LASV entry inh | StopGo reporter | RE007 growth inh | Cruzain inh Det | Marburg entry inh | Cruzain noTriton | NS1 inh
COc1ccc(-n2nc(C(=O)NCC(=O)NC(C)C)c3ccccc3c2=O)cc1OC | 2% | / | -18% | -3% | / | / | / | -2%
COc1ccc(S(=O)(=O)N2CCCOC2CNC(=O)C(=O)NCc2ccco2)cc1 (stereo unspecified) | 0% | 16% | 4% | 34% | / | -27%[46.1 µM] | / | /
O=C(Nc1ccccn1)c1ccc(Cl)c(S(=O)(=O)N2CCCCCC2)c1 | -14% | 25% | -20% | 50% | / | ? | / | /
C#CCOC(=O)c1ccccc1C(=O)O | 12% | ? | 2% | 12% | -0.8% | 3% | -2% | 4%[9.22 µM]
CC(=O)c1sc(NC(=O)CS(=O)(=O)c2ccc(F)cc2)nc1C | 2% | 18% | 32%[activator] | 6% | / | ? | / | /
COc1cc(OC)c(OC)cc1CN1CCC(O)CC1 | 2% | / | -17% | -17% | / | / | / | 0%
